Screens from PubChem.
MT1-MMP act inh: inhibitors of human MT1-MMP activation | HT1080 RFP-PRO-GFP cells, GFP/RFP ratio fluorescence, overnight; percent of plate control window, DMSO zero | GFP/RFP ratio change, % at 20 µM | 0.061% of 360,000 active;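 active = GFP/RFP ratio change of at least 30% with cell ATP level not reduced by more than half and red fluorescence within 50% of control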; also: strong numbers were not always called active
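Test system: HT1080 cells expressing an RFP-PRO-GFP fluorescent reporter construct / Compound dosing: single-point 20 µM compound, 1% DMSO / Schedule: cells overnight before dosing, compound overnight, 37 °C, 5% CO2 / Evaluation: GFP/RFP fluorescence ratio / Control set: DMSO and RFP-L50D-GFP cell wells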
Rce1 inhib: inhibitors of yeast Ras-converting enzyme; Q03530; yeast membranes, quenched prenylated peptide cleavage fluorescence; calls only; 0.27% of 290,000 active; AID 2563;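 active = fall in fluorescence gain of 50% or more versus controls, with final raw signal at or below 3038400; inconclusive = same 50% fall but final raw signal above 3038400; inactive = fall in fluorescence gain under 50%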;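 also: plate controls were neutral control wells for no effect and wells lacking membranes for full effect; tested at 10 µM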
Target sequence (Q03530 whole entry, looked up): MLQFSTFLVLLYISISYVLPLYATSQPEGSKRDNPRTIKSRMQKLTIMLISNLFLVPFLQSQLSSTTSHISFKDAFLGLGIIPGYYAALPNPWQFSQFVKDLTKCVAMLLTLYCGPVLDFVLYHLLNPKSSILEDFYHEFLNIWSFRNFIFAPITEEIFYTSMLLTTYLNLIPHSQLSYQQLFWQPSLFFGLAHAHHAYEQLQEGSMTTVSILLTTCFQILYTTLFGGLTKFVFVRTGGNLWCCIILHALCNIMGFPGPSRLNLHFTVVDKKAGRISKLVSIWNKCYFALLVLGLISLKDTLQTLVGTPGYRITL
HIV Env fusion: HIV envelope-mediated fusion inhibition. HeLa-JRFL Env/CEM21 cell fusion, luciferase. inhibition, % at 12.3 µM. 1.1% of 360,000 active. AID 651610;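 active = mean replicate inhibition score of at least 50 and every replicate individually at or above 50; inconclusive = only one of the two criteria met; inactive = mean below 50 and not all replicates reaching 50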;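 also: 0% = plate neutral controls and 100% = maraviroc near 300 nM; one replicate is shown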
CSC inhib: cancer stem cell inhibition; cancer stem cell-like cells viability, luminescence; inhibition, % at 7.5 µM; 1.1% of 300,000 active; AID 2717;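 active = mean at 75% or more and at least half the replicates too; inconclusive = mean and replicates disagree; tested in HMLE shEcad cells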;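 also: 0% = median of negative and 100% = median of positive control wells; the first replicate is given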
Yeast UUG start: yeast start codon fidelity modulation; S. cerevisiae UUG-firefly luciferase reporter, luminescence/redox ratio; activity score, % at 18.7 µM; 0.13% of 350,000 active; AID 602363;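 active = replicate mean at a twofold rise or more, about +100% in these data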;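 also: firefly luciferase made from a UUG start codon reports start codon fidelity; reporter light over untreated wells divided by growth signal over untreated wells; some hits fall short of that in this replicate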
PABP FP inh: blocks human PABP binding to poly(A) RNA; AID 2014; 1% of 290,000 active; fluorescence polarization; P11940; inhibition, % at 35 µM;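 active = 50% or more with normal probe brightness, or confirmed in later tests; inconclusive = above 50% with abnormal brightness, or retests that disagree; inactive = below 50% or failed in later tests; about a fifth of its hits are not listed in these tables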;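 also: calls also rest on retests at 20 µM and on dose response follow-up; controls were probe without protein and protein plus probe with vehicle; some compounds called inactive have numbers as strong as hits; many hits fall short of the cut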
Target sequence (P11940 whole entry, looked up): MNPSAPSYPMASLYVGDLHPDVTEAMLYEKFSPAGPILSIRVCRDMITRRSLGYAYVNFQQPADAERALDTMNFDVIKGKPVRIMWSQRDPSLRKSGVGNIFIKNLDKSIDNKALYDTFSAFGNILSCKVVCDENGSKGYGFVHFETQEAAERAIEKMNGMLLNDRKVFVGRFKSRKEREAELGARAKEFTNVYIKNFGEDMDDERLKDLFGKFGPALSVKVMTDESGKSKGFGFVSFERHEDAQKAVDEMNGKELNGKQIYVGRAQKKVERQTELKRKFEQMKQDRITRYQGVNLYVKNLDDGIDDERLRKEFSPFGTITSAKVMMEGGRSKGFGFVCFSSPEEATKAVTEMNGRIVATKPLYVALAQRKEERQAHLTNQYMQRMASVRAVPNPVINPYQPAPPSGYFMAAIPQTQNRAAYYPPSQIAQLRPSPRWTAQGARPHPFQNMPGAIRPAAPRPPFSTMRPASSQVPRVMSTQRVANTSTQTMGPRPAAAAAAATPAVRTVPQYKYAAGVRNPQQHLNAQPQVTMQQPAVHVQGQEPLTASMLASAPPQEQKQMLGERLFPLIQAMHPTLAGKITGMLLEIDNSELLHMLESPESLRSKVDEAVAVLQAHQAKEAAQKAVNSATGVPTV
eIF4H FP inh: inhibitors of RNA binding by human eIF4H; Q15056; eIF4H fluorescence polarization binding assay; inhibition, % at 35 µM; 0.94% of 290,000 active; AID 2012;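 active = 50% or more with normal probe brightness, or confirmed in later tests; inconclusive = above 50% with abnormal brightness, or retests that disagree; inactive = below 50% or failed in later tests; about a fifth of its hits are not listed in these tables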;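 also: calls also rest on retests at 20 µM and on dose response follow-up; 0% = protein and probe with vehicle and 100% = probe without protein; strong numbers were not always called active; many hits fall short of the cut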
MT1-MMP act inh RFP: second read-out of MT1-MMP act inh, no call of its own (marks repeat the call); RFP signal change, %; measured here: RFP expression control read;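 0 = vehicle wells; hits needed this value within 50% of zero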
Starred values were filed as active, the others as inactive; i = inactive; ? = inconclusive; / = not tested or not shown; & = joins results of further samples; [ ] = dose if it differs, or a comment. Some of the compounds tested; count on the stated rates, not on these rows.

SMILES | MT1-MMP act inh | MT1-MMP act inh RFP | Rce1 inhib | HIV Env fusion | CSC inhib | Yeast UUG start | PABP FP inh | eIF4H FP inh
CS(=O)(=O)Oc1ccc(/C=C2\C(=N)N3N=C(CC(=O)N4CCOCC4)SC3=NC2=O)cc1Cl | -1 | 2 | i | 5 | 0 | 0 | -6 | -14
Cc1cccc(N2CCN(C(=O)C3CCN(S(=O)(=O)N4CCOCC4)CC3)CC2C)c1 (stereo not given) | 3 | 0 | i | ? | 5 | / | 2 | 2
CCOC(=O)C1=C(C)OC(N)=C(C#N)C1c1ccc(C)s1 (stereo not given) | -5 | 3 | i | -4 | 4 | / | -4 | 8
Cc1cccc(C)c1NC(=O)CNC(=O)C1CCCC1 | 1 | -1 | / | / | 2 | -3 | / | /
CN[C@H]1C[C@H]2c3cc(-c4ccccc4)ccc3CCN2C(=O)[C@H]1[C@H](C)O | 2 | 3 | / | -9 | / | 0 | / | /
O=C(OCN1C(=O)c2ccccc2C1=O)c1cccc(S(=O)(=O)N2CCOCC2)c1 | 1 | 1 | i | / | -12 | -6 | 7 | -5
Cc1cc(NC(=O)CSc2n[nH]c(-c3ccccc3Br)n2)no1 | -1 | 2 | / | 13 | -13 | -7 | / | /
COc1ccccc1CCCNC(=O)C1CCC(=O)N(Cc2ccccc2F)C1 (stereo not given) | 1 | -2 | i | -38 | 2 | -7 | 11 | -15
CCN(CC)C(=O)c1cccc(-c2csc(C(O)c3ccc(F)c(OC)c3)n2)c1 (stereo not given) | -8 | -25 | / | 14 | / | 1 | / | /
CN1/C(=C\C=Nc2ccc3ccccc3c2)C(C)(C)c2ccccc21 | -12 | 12 | / | / | 4 | -1 | 0 | -5
Cc1cc(/C=C2\Sc3ccccc3N2C)cc(C)[n+]1CC1CCCO1 (stereo not given) | -150 | -22 | / | 15 | / | / | 6 | 0
CCOc1ccc(C(=O)N2CCN(c3cnn(-c4ccccc4)c(=O)c3Cl)CC2)cc1 | 5 | 5 | i | 4 | -2 | / | -7 | -5
CS(=O)(=O)/C(C#N)=C/c1cccn1S(=O)(=O)c1ccccc1 | 2 | 1 | i | 4 | / | -6 | -8 | -8
CC1CCC(C(C)C)C(OCC(O)CNC(C)C)C1 (stereo not given) | -2 | 2 | i | -5 | -27 | 1 | 2 | -2
O=C(N/C(=C/c1ccc(F)cc1)C(=O)N1CCCC1)c1ccccc1 | 2 | 2 | i | -3 | / | -16 | 6 | -11
O=C(COc1cccc2ccccc12)N/N=C/c1ccc(Sc2nc3ccccc3s2)o1 | -4 | -8 | i | -102 | 9 | 9 | -16 | -11
COc1ccc(Cl)cc1Nc1cc(C)nc2nc(C)nn12 | -1 | 3 | i | -60 | -1 | -3 | -3 | 1
O=C(/C=C\c1ccco1)Nc1ccc(N2CCN(C(=O)c3ccccc3)CC2)cc1 | 7 | 6 | i | 15 | 13 | / | 0 | -9
COc1ccc(NS(=O)(=O)c2ccc(N3CCOCC3)c(NC(=O)c3ccccc3Cl)c2)cc1 | 1 | -2 | i | 4 | 2 | / | 10 | 0
C/C(=N\Nc1cccc2cccnc12)c1ccccc1O | -8 | -1 | i | i | -2 | / | 20 | -3
CCn1c(SCC(=O)Nc2cccc(C)c2)nc2nc3c(cc2c1=O)COC(C)(C)C3 | -5 | -4 | i | 11 | 3 | -11 | 4 | -18
CCOC(=O)Cc1cc(=O)[nH]c(/N=C(\N)Nc2ccc(C)c(C)c2)n1 | -6 | -12 | i | 9 | / | / | 0 | -5
CCCSc1nc2cc(C)c(C)cc2n1CC(C)O (stereo not given) | 4 | 2 | i | -5 | -9 | / | -1 | 0
CCNC(=S)Nc1sc2c(c1C#N)CCC(C)C2 (stereo not given) | 6 | -3 | i | 8 | -10 | / | 6 | 4
O=C(/C=C/c1ccc(O)cc1)c1c(O)cc(O)cc1O | 2 | 2 | i | / | -9 | -11 | 16 | 7
O=S(=O)(NC1CCN(Cc2ccccc2)CC1)c1ccc(F)c(F)c1 | -3 | 5 | / | -6 | / | -16 | / | /
O=C(O)CCNC(=O)/C(=C/C=C/c1ccccc1)NC(=O)c1ccccc1 | 1 | 4 | i | 0 | -8 | / | 2 | 1
O=c1cc(-c2ccccc2)oc2ccc3ccccc3c12 | -4 | -2 | / | -20 | / | -62 | / | /
Cc1cc2c(s1)c1cnn(-c3ccccc3)c(=O)c1n2C | 0 | -2 | / | -9 | / | -20 | / | /
Cc1ccc(S(=O)(=O)N2C(=O)CCC2C(=O)N2CCCCC2)cc1 (stereo not given) | -5 | -3 | i | 13 | 13 | -7 | 6 | -6
CCCC(=O)Nc1ccc(C#Cc2ccccc2)cc1 | 9 | -8 | i | -49 | -1 | -9 | -16 | 2
Cc1cccc(C(=O)NCc2nnc(SCC(=O)NC3CCCC3)n2C)c1 | -1 | 1 | i | -6 | -10 | -18 | 14 | 33
Cc1cc(N)n(-c2ccccn2)n1 | 0 | 3 | i | 1 | 0 | -9 | 4 | -3
COc1ccc(CNC(=O)c2cn(Cc3ccc(S(=O)(=O)N(C)C)cc3)c(=O)s2)cc1 | 6 | -16 | / | 19 | / | -16 | / | /
CN(C)S(=O)(=O)Nc1cccc(NC(=O)CC23CC4CC(CC(C4)C2)C3)c1 | 5 | -3 | i | 29 | 8 | 3 | 5 | 6
COc1ccccc1/C=C\C(=O)NCC(=O)N/N=C(/C)c1cccc([N+](=O)[O-])c1 | 3 | -1 | i | -10 | -4 | -5 | -5 | 3
Cc1cc(C(=O)OCC(=O)Nc2c(F)cccc2F)c(C)n1-c1ccccc1 | -4 | -20 | i | 13 | 14 | -1 | 1 | 8
O=C(NCc1ccco1)c1ccc2c(=O)n(-c3ccccc3)c(=S)[nH]c2c1 | 2 | -1 | i | 10 | -8 | -5 | -2 | 0
Cc1cc(C(=O)NCc2cc(F)cc3c2OCOC3)nn1C | -6 | -5 | i | 4 | -10 | / | 0 | -11
CC(C)c1ccccc1OCCCCCNCCO | 2 | 2 | i | / | 22 | 0 | -1 | 2
Cc1ccc(CC(=O)NCC(C)C)cc1 | -5 | 2 | i | -1 | / | -16 | 2 | -2
O=C(NCCCn1ccnc1)/C(=C/c1cccnc1)NC(=O)c1ccco1 | -4 | 0 | i | -5 | 2 | -14 | -3 | -4
CCc1ccccc1OCc1nnc(N)s1 | -1 | 0 | i | / | -1 | -15 | -4 | 2
COc1ccccc1-n1c(SCC(=O)N(C)C2CCS(=O)(=O)C2)nc2ccccc2c1=O (stereo not given) | 1 | 2 | i | -15 | -3 | -4 | -5 | -5
O=C(Nc1cccc(-c2nn[nH]n2)c1)c1ccc(Cl)s1 | -5 | -2 | i | 17 | -4 | -11 | 9 | 3
COCCNC(=O)CN(C(=O)Cn1nnc2ccccc21)c1ccc(C)c(F)c1 | -2 | 1 | i | -74 | -14 | -9 | -1 | -6
CCC1(C(=O)OC)NC(c2cccc(F)c2)C2C(=O)N(C)C(=O)C21 (stereo not given) | 2 | -1 | i | -58 | -8 | -2 | / | /
CCCn1nnc(NC(=O)c2sc3ccccc3c2Cl)n1 | 2 | -2 | i | -109 | -8 | / | 4 | -4
CCOC(=O)c1c(C)oc2c1c(C=NC1CCS(=O)(=O)C1)c(O)c1ccccc12 (stereo not given) | 3 | 5 | i | -3 | 18 | 4 | ? | ?
Cc1ccc(C(=O)Nc2ccc(N3CCOCC3)c3nonc23)cc1[N+](=O)[O-] | 4 | -2 | i | 1 | / | -18 | 20 | 4
O=C(C1CCN(c2ccc(N3CCOCC3)nn2)CC1)N1CCN(c2ccc(F)cc2)CC1 | 4 | -7 | i | / | -7 | -1 | -2 | -5
CCCCn1c(N)c(N(CCOC)C(=O)COC(=O)COc2cccc(C(C)=O)c2)c(=O)[nH]c1=O | 3 | 3 | i | -10 | -18 | / | / | /
O=C(Nc1c2c(nn1-c1ccc([N+](=O)[O-])cc1)CS(=O)(=O)C2)c1ccccc1F | 2 | 0 | i | 1 | 11 | 2 | 0 | -2
CCOc1cc(/C=N/NC(=O)CCCC(=O)NC2CCCCC2)ccc1O | 1 | 2 | i | 6 | -13 | -14 | -6 | 7
Cc1ccc(S(=O)(=O)N2CCN=C2SCc2ccccc2)cc1 | 0 | 2 | i | 1 | / | / | -7 | 4
CC/C(=N\NC(=O)c1nnn(-c2nonc2N)c1-c1cccs1)c1ccccc1 | 1 | 0 | i | 6 | -16 | 4 | -11 | -5
COc1cccc(-c2nnn(CC(=O)Nc3cc(OC)c(NC(=O)c4ccco4)cc3OC)n2)c1 | -5 | -3 | i | i | -11 | -16 | -14 | -11
COc1cccc(/C(C)=N/NC(=O)Cc2c(C)[nH][nH]c2=O)c1 | -2 | 0 | / | 2 | -8 | / | -10 | -2
COc1ccc(C(=O)N/N=C/c2ccccc2C(=O)O)cc1OC | 7 | 8 | i | -48 | -7 | -22 | -6 | -3
Cc1ccc(NC2SC(=O)N(Cc3cccc(C(=O)O)c3)C2=O)c(C)c1 (stereo not given) | 4 | 6 | i | -7 | -7 | / | -1 | 1

2 of these compounds, set out differently:
Values run as follows: MT1-MMP act inh, MT1-MMP act inh RFP, Rce1 inhib, HIV Env fusion, CSC inhib, Yeast UUG start, PABP FP inh, eIF4H FP inh
COc1cccc(-c2nnn(CC(=O)Nc3cc(OC)c(NC(=O)c4ccco4)cc3OC)n2)c1
 : -5, -3, i, i, -11, -16, -14, -11
Cc1ccc(S(=O)(=O)N2CCN=C2SCc2ccccc2)cc1
 : 0, 2, i, 1, /, /, -7, 4

More compounds:
SMILES | MT1-MMP act inh | MT1-MMP act inh RFP | Rce1 inhib | HIV Env fusion | CSC inhib | Yeast UUG start | PABP FP inh | eIF4H FP inh
Cc1cccc(NC(=O)CCCCCN2C(=O)c3ccccc3C2=O)n1 | 4 | 4 | i | / | 5 | -6 | -8 | 7
COc1ccc(NC(=O)C2Cc3c(-c4cccc(C(N)=O)c4)ccnc3O2)cc1OC (stereo not given) | 1 | -15 | / | 5 | / | -10 | / | /
Cc1cc(N2C(=O)CCC2=O)n(-c2ccccc2)n1 | -1 | 3 | i | -26 | -2 | -20 | 3 | 2
COC(=O)c1ccc(NC(=O)C2C3C=CC(O3)C2C(=O)O)cc1 (stereo not given) | 0 | 0 | i | / | -8 | -15 | 1 | -13
CC[C@@]12C(=O)N(c3cccc(Br)c3)C(=O)N1[C@H](c1ccc(Cl)cc1)[C@@H]1C(=O)N(C3CCCCC3)C(=O)[C@@H]12 | 2 | 1 | i | 94* | 23 | -12 | -5 | -5
Nc1nnc(SCC(=O)NCCNC(=O)CSc2nnc(N)s2)s1 | -1 | 0 | / | 0 | -2 | -9 | / | /
C=CCOC(=O)C1=C[C@H](c2csc3ccccc23)C[C@H](OCCCCO)O1 | -3 | -3 | i | -4[16.7 µM] | -2 | 26&-9 | / | /
COc1ccccc1NC(=O)CCNC(=O)C1CCN(S(=O)(=O)c2ccccc2)CC1 | -1 | 2 | / | -4 | / | -4 | / | /
Cc1cc(NC(=O)c2ccccc2)n(-c2ccccc2)n1 | -4 | 2 | i | -4 | -13 | / | 8 | 1
Nc1nc(NC(=O)c2cccs2)nn1-c1ccccc1 | 3 | 0 | i | -28 | -4 | -21 | 2 | -4
COc1ccc2c(c1)[C@H]1[C@H](CO2)[C@H](c2ccccc2)[C@]2(C)C(=O)Nc3ccc(Br)cc3C(=O)N12 | -21 | -8 | / | -17 | -1 | 30 | / | /
COc1ccc(C2c3c(-c4ccccc4)n[nH]c3C(=O)N2c2ccc(C(=O)O)cc2)cc1 (stereo not given) | 1 | 4 | i | 0 | / | / | 2 | -2
